VACV Venus inh: vaccinia inhibition (Venus reporter). 0.46% of 330,000 active. AID 720580. Vaccinia virus Venus reporter expression, fluorescence. Potency, µM (highest dose often 36.5 µM), for inactives: at the top dose activity change, negative = inhibition, usual class: inhibitors; active means well fitted inhibition curve with a large enough effect; inconclusive means small, poorly fitted or top-dose-only effect; inactive means no such curve, though single readings can be large or run the other way; tested in A549 cells; also: nearly all actives have a fitted effect of over 30% in size; inactives centre near -10
Vaccinia mCherry: inhibitors of vaccinia virus infection (mCherry reporter signal) | Vaccinia virus mCherry reporter infection, fluorescence; about a quarter of the inactives have no number | Potency, µM (titrated, usually from 36.5 µM), without a hit: at the highest dose activity change, negative = inhibition, actives largely listed as inhibitors | 0.63% of 310,000 active | AID 720579; active = well fitted inhibition curve with a large enough effect; inconclusive = small, poorly fitted or top-dose-only effect; inactive = no such curve, though single readings can be large or run the other way; tested in A549 cells; also: nearly all actives have a fitted effect of over 35% in size; inactives centre near -10
An asterisk follows results filed as active; & = joins results of further samples. % is scaled to controls: 0 for no effect and ±100 for the full control effect; potency is read from the fitted curve at half-maximal effect.

Screening COc1ccc2[nH]cc(C(O)CN3CCN(c4ccccc4F)CC3)c2c1 (stereo unspecified) returned VACV Venus inh -14% and Vaccinia mCherry inconclusive.
Screening COc1ccc(S(=O)(=O)N2CC3C4C=CC(C4)C3C2)cc1 (stereo unspecified) returned VACV Venus inh -9% and Vaccinia mCherry -5%.
Cc1c(NC(=O)C(C)OC(=O)c2sc3ccccc3c2Cl)c(=O)n(-c2ccccc2)n1C (stereo unspecified) was read as VACV Venus inh -19% and Vaccinia mCherry -23%.
`COc1ccc(S(=O)(=O)N2CCCC(C(=O)NCCC3=CCCCC3)C2)cc1` (stereo unspecified) gave VACV Venus inh inconclusive.
O=C1CCC[C@@H]2C[C@@]3(C[C@@H]4CCN1[C@H]24)Nc1ccccc1NC3=NCc1ccccc1 was read as VACV Venus inh -15% and Vaccinia mCherry -21%.
O=C(Nc1ccc(F)cc1)C(c1ccncc1)N1CCN(CC(=O)N2CCCC2)CC1 (stereo unspecified) was read as VACV Venus inh -18% and Vaccinia mCherry -17%.
`CCC1(C)Cc2nc3[nH]c(=S)n(-c4ccc(C)cc4)c(=O)c3cc2CO1` (stereo unspecified) gave VACV Venus inh -11% and Vaccinia mCherry -13%.
C=CCN1C(=O)C(C)NC1=S (stereo unspecified) was read as VACV Venus inh 0% and Vaccinia mCherry -1%.
For O=C(NCc1ccccc1Cl)C1CCN(S(=O)(=O)c2ccc(F)cc2)CC1 the results were VACV Venus inh -3% and Vaccinia mCherry inactive.
`CCCCn1c(O)c(C(C)=NCCc2ccccc2)c(=O)[nH]c1=O` gave VACV Venus inh -18%.
For Cc1ccc(CNC(=O)CCCc2ccccc2)cc1 the results were VACV Venus inh -2% and Vaccinia mCherry -11%.
CC(C)n1c(NCCO)nc2ccccc21 was read as VACV Venus inh 4% and Vaccinia mCherry 4%.
Screening CCOC(=O)C(Cc1ccnnc1)=NO returned VACV Venus inh -13% and Vaccinia mCherry -18%.
For COn1c(=O)c(=O)n(O)c2ccccc21 the results were VACV Venus inh -22%.
`Cn1c(=O)c2cc(NC(=S)NC3CCCCC3)ccc2n1Cc1cccc(C(F)(F)F)c1` gave VACV Venus inh -9% and Vaccinia mCherry inactive.
Screening O=C(C[C@H]1C/C=C/CC[C@H](Cc2ccc(F)cc2)C(=O)O[C@H](c2ccccc2)CNC1=O)NCCO returned VACV Venus inh -16% and Vaccinia mCherry inactive.
`CC(=O)c1ccc(NC(=O)Cn2ncc3c(C)n(Cc4ccc(F)cc4)c(C)c3c2=O)cc1` gave VACV Venus inh -13% and Vaccinia mCherry -5%.
`CCC(=O)c1ccc(Oc2nc3c(c(=O)n(C)c(=O)n3C)n2CC)cc1` gave VACV Venus inh -22% and Vaccinia mCherry -14%.
Cc1cc(C)cc(C(=O)Nc2cc3c4c(c2)CC(=O)N4CCC3)c1 was read as VACV Venus inh -8% and Vaccinia mCherry -14%.
`COc1cccc(C(c2nnnn2-c2c(C)cccc2C)N2CCN(C/C=C/c3ccccc3)CC2)c1OC` (stereo unspecified) gave VACV Venus inh -16% and Vaccinia mCherry -13%.
For O=C(CCC1COc2ccccc2O1)NCc1ccco1 (stereo unspecified) the results were VACV Venus inh -8%.
Screening COc1ccc(-c2nn3c(=O)cc(CN4CCN(C(=O)c5ccc(OC)c(OC)c5)CC4)nc3s2)cc1 returned VACV Venus inh -11% and Vaccinia mCherry -7%.
`COc1cc(C(=O)OCCCN2CCOCC2)cc(OC)c1OC` gave VACV Venus inh -25% and Vaccinia mCherry -3%.
`Cc1ccccc1CSCC(=O)NCc1ccco1` gave VACV Venus inh -16% and Vaccinia mCherry inactive.
For Cc1cccc(NC(=O)Nc2nnc(N(C)Cc3ccccc3)s2)c1 the results were VACV Venus inh -20% and Vaccinia mCherry -11%.
CC(C)C[C@@H](CO)N1CCN(Cc2ccc(O)cc2)CCC1=O was read as VACV Venus inh -14%&-8% and Vaccinia mCherry -24%.
`CN(C)C(=O)CS(=O)(=O)c1ccc(Cl)cc1` gave VACV Venus inh -6% and Vaccinia mCherry inactive.
`O=C(COc1ccccc1[N+](=O)[O-])NCC1(N2CCOCC2)CCCCC1` gave VACV Venus inh -13% and Vaccinia mCherry -20%.
CCOc1ccccc1NC(=O)c1cc(S(=O)(=O)N2CCOCC2)cn1C was read as VACV Venus inh -17% and Vaccinia mCherry inactive.
COP(N)(=O)SC (stereo unspecified) was read as VACV Venus inh -6% and Vaccinia mCherry -3%.
Screening COc1ccc(/C=C/C(=O)Nc2ccc(C(C)=O)cc2)cc1S(=O)(=O)N1CCOCC1 returned VACV Venus inh -8% and Vaccinia mCherry inactive.
Screening CC12c3ccccc3C(c3ccccc31)C1C(=O)N(c3cccnc3)C(=O)C12 (stereo unspecified) returned VACV Venus inh 1% and Vaccinia mCherry inactive.
`O=[N+]([O-])c1ccc(N2CCNCC2)cc1Sc1ccccn1` gave VACV Venus inh -11% and Vaccinia mCherry -10%.
Screening COc1ccc(-c2nc(CNS(=O)(=O)c3cc(OC)ccc3OC)cs2)cc1 returned VACV Venus inh 0% and Vaccinia mCherry inactive.
Screening Cc1sc2ncnc(N3CCC(C(=O)Nc4nc(-c5ccc(F)cc5)cs4)CC3)c2c1C returned VACV Venus inh 2% and Vaccinia mCherry inactive.
Screening CCCN(CC(=O)Nc1ccccc1C)C(=O)CCN1C(=O)c2cccc([N+](=O)[O-])c2C1=O returned VACV Venus inh -20% and Vaccinia mCherry -12%.
`CN(C)c1ccc(Sc2nnc(NC(=O)Nc3ccc(Cl)cc3Cl)s2)cc1` gave VACV Venus inh 5% and Vaccinia mCherry -11%.
For CC(C(=O)Nc1ccc(F)c(F)c1F)N1CCCCCC1 (stereo unspecified) the results were VACV Venus inh -2% and Vaccinia mCherry -9%.
`O=C(N/N=C(\Cc1ncc[nH]1)c1ccccc1)c1ccncc1` gave VACV Venus inh inconclusive and Vaccinia mCherry 10µM*.
Screening Cc1ccc(SCC(=O)O/N=C(\N)c2cccnc2)cc1 returned VACV Venus inh -18% and Vaccinia mCherry -9%.

Some of these compounds in order of molecular weight, descending.
Screening CCCN(CC(=O)Nc1ccccc1C)C(=O)CCN1C(=O)c2cccc([N+](=O)[O-])c2C1=O returned VACV Venus inh -20% and Vaccinia mCherry -12%.
`O=C(COc1ccccc1[N+](=O)[O-])NCC1(N2CCOCC2)CCCCC1` gave VACV Venus inh -13% and Vaccinia mCherry -20%.
Screening CC12c3ccccc3C(c3ccccc31)C1C(=O)N(c3cccnc3)C(=O)C12 (stereo unspecified) returned VACV Venus inh 1% and Vaccinia mCherry inactive.
Screening Cc1ccc(SCC(=O)O/N=C(\N)c2cccnc2)cc1 returned VACV Venus inh -18% and Vaccinia mCherry -9%.
`Cc1ccccc1CSCC(=O)NCc1ccco1` gave VACV Venus inh -16% and Vaccinia mCherry inactive.

More results:
`COc1ccccc1NS(=O)(=O)c1cccc(C(=O)N/N=C(\C)c2ccc3c(c2)OCCO3)c1` gave VACV Venus inh -19% and Vaccinia mCherry -24%.
For Cc1ccc(C)c(S(=O)(=O)Nc2nc3ccc(S(N)(=O)=O)cc3s2)c1 the results were VACV Venus inh -3% and Vaccinia mCherry -12%.
COc1ccc(CCC(=O)N2CCc3ccccc32)cc1 was read as VACV Venus inh -12% and Vaccinia mCherry -14%.
COc1ccc([N+](=O)[O-])cc1N(CC(=O)N1CCCC1)S(C)(=O)=O was read as VACV Venus inh -17% and Vaccinia mCherry -10%.
O=C(CN1C(=O)C(=O)N(C2CCCC2)C1=O)Nc1ccc(N2CCOCC2)cc1 was read as VACV Venus inh -11% and Vaccinia mCherry -9%.
`OCc1ccccc1O[C@H]1OC(CO)C(O)C(O)C1O` (stereo partly specified) gave VACV Venus inh -10% and Vaccinia mCherry -19%.
For CC(C)(C)NC(=S)NNC(=O)c1ccccc1Cl the results were VACV Venus inh -10% and Vaccinia mCherry -9%.
`O=c1cc(O)n(-c2ccccc2)c(=S)[nH]1` gave VACV Venus inh -3% and Vaccinia mCherry -9%.
Screening O=C(Cn1nnc(-c2ccccc2F)n1)Nc1ccc(S(=O)(=O)NC2CCCC2)cc1 returned VACV Venus inh -21% and Vaccinia mCherry -28%.
Screening Cc1ccc(Sc2c(C)nn(-c3ccccc3)c2OC(=O)C(C)(C)C)cc1 returned VACV Venus inh 7% and Vaccinia mCherry -5%.
Screening CC(C)CN(C(=O)COC(=O)c1ccc([N+](=O)[O-])o1)C1CCS(=O)(=O)C1 (stereo unspecified) returned VACV Venus inh -9% and Vaccinia mCherry inactive.
`Cc1ccc2sc(NC(=O)c3ccc(N4C(=O)CCC4=O)cc3)nc2c1C` gave VACV Venus inh -7% and Vaccinia mCherry inactive.
`COc1ccc(S(=O)(=O)N(C)C[C@H]2OCCCC[C@@H](C)Oc3ccc(NC(=O)CCC(F)(F)F)cc3C(=O)N([C@H](C)CO)C[C@@H]2C)cc1` gave VACV Venus inh -14% and Vaccinia mCherry -28%.
`CCn1c(=O)c2sccc2n(CC(=O)NC2CCCC2)c1=O` gave VACV Venus inh -4% and Vaccinia mCherry -2%.
Screening CN1C(=O)Cc2cc(S(=O)(=O)Nc3ccc(N4CCOCC4)cc3)ccc21 returned VACV Venus inh -9% and Vaccinia mCherry inconclusive.
`O=C(Nc1nc(-c2ccccn2)cs1)C12CC3CC(CC(O)(C3)C1)C2` gave VACV Venus inh 0% and Vaccinia mCherry -1%.
For Cc1ccc(N2CC(C)Cn3c2nc2c3c(=O)n(Cc3cccc(Cl)c3)c(=O)n2C)cc1 (stereo unspecified) the results were VACV Venus inh -27% and Vaccinia mCherry -27%.
`O=C1CN=C(c2cccc(Br)c2)c2cc(Br)ccc2N1` gave VACV Venus inh -16% and Vaccinia mCherry -3%.
`O=C(O)c1cccc2nc3ccccc3nc12` gave VACV Venus inh -11% and Vaccinia mCherry inconclusive.
CC(=O)Nc1ccc(NC(=O)CNC(=O)c2sc3ccccc3c2Cl)cc1 was read as VACV Venus inh 3% and Vaccinia mCherry inactive.

Grouped by structure: the compounds so far containing a tert-butyl group (two)
For CC(C)(C)NC(=S)NNC(=O)c1ccccc1Cl the results were VACV Venus inh -10% and Vaccinia mCherry -9%.
Screening Cc1ccc(Sc2c(C)nn(-c3ccccc3)c2OC(=O)C(C)(C)C)cc1 returned VACV Venus inh 7% and Vaccinia mCherry -5%.

At a glance, 4 of the compounds above.
For Cc1ccc(N2CC(C)Cn3c2nc2c3c(=O)n(Cc3cccc(Cl)c3)c(=O)n2C)cc1 (stereo unspecified) the results were VACV Venus inh -27% and Vaccinia mCherry -27%.
`O=C1CN=C(c2cccc(Br)c2)c2cc(Br)ccc2N1` gave VACV Venus inh -16% and Vaccinia mCherry -3%.
`O=C(O)c1cccc2nc3ccccc3nc12` gave VACV Venus inh -11% and Vaccinia mCherry inconclusive.
CC(=O)Nc1ccc(NC(=O)CNC(=O)c2sc3ccccc3c2Cl)cc1 was read as VACV Venus inh 3% and Vaccinia mCherry inactive.

(cont.)
`CN(C)S(=O)(=O)c1ccc(C(=O)NCCSc2c(-c3ccc(Br)cc3)[nH]c3ccccc23)cc1` gave VACV Venus inh -13% and Vaccinia mCherry -7%.
For Cc1nc(SCC(=O)Nc2cc(C)on2)c2c(C)c(C)sc2n1 the results were VACV Venus inh -8% and Vaccinia mCherry -9%.
O=C(/C=C/c1cccc(F)c1)NNC(=O)c1ccncc1 was read as VACV Venus inh inconclusive and Vaccinia mCherry -18%.
Screening Cc1ccccc1OCC(=O)NCC(c1ccco1)N1CCCCC1 (stereo unspecified) returned VACV Venus inh -6% and Vaccinia mCherry -6%.
For FC(F)(F)c1cccc(NC(=S)Nc2cccc(Cl)c2)c1 the results were VACV Venus inh -26%.
Screening Cc1cccc(C)c1-n1nnnc1C(c1ccnc2ccccc12)N(Cc1ccccc1)Cc1ccccc1 (stereo unspecified) returned VACV Venus inh -11% and Vaccinia mCherry -22%.
`CCc1ccc2nc(N(CCN(CC)CC)C(=O)c3cccs3)sc2c1` gave VACV Venus inh -4% and Vaccinia mCherry -11%.
`O=C(O)CSc1cccc2cccc(C(=O)O)c12` gave VACV Venus inh 3% and Vaccinia mCherry inactive.
For O=C(CNC(=O)c1ccccc1)N/N=C/c1ccccc1Cl the results were VACV Venus inh -4% and Vaccinia mCherry -14%.
For O=C(O)c1ccc(NC2(C(=O)O)CCCC2)cc1 the results were VACV Venus inh -7% and Vaccinia mCherry 0%.
`CC1(C)Cc2c(C#N)c(N3CCN(C(=O)c4ccccc4)CC3)nc(-c3ccco3)c2CS1` gave VACV Venus inh -5% and Vaccinia mCherry -6%.
For CCCCCCn1cc(CN2CC(N3CCN(Cc4ccccc4F)CC3)CS2(=O)=O)nn1 (stereo unspecified) the results were VACV Venus inh -16% and Vaccinia mCherry inactive.
`Cn1c(=O)c2[nH]c(C3CC=CCC3)nc2n(C)c1=O` (stereo unspecified) gave VACV Venus inh -9% and Vaccinia mCherry -5%.
For CCOC(=O)CN1C(=O)N[C@@H](c2cccc(C(F)(F)F)c2)C(C(C)=O)=C1C the results were VACV Venus inh -6% and Vaccinia mCherry -6%.
For Cc1noc(C)c1S(=O)(=O)N(C)C[C@@H]1OCc2cnnn2CCCC(=O)N([C@@H](C)CO)C[C@H]1C the results were VACV Venus inh -19% and Vaccinia mCherry -26%.
O=C(NCCc1ccccc1)c1cc2sccc2n1Cc1ccccc1 was read as VACV Venus inh -9% and Vaccinia mCherry -17%.
COc1cc(=O)[nH]c(SC(C)C(=O)Nc2cccc3ccccc23)n1 (stereo unspecified) was read as VACV Venus inh 1% and Vaccinia mCherry inactive.
For CCN1C(=O)c2ccc(C(=O)Nc3nccs3)cc2C1=O the results were VACV Venus inh -13% and Vaccinia mCherry -25%.

Screens (PubChem)
